Screening results: PubChem, National Center for Advancing Translational Sciences (NCATS)
Vaccinia Venus: vaccinia inhibition (Venus reporter); Vaccinia virus Venus reporter expression, fluorescence; actives 0.46% (n = 330,000); Potency, µM (doses to about 36.5 µM), for inactives: at the highest dose activity change, negative = inhibition, actives largely listed as inhibitors; active means well fitted inhibition curve with a large enough effect; inconclusive means small, poorly fitted or top-dose-only effect; inactive means no such curve, though single readings can be large or run the other way; tested in A549 cells; note: nearly all actives have a fitted effect of over 30% in size; inactives centre near -10
Vaccinia mCherry: vaccinia inhibition (mCherry reporter). actives 0.63% (n = 310,000). Vaccinia virus mCherry reporter infection, fluorescence; about a quarter of the inactives have no number. Potency, µM (series often up to 36.5 µM), without a hit: at the top dose activity change, negative = inhibition, usual class: inhibitors; active = well fitted inhibition curve with a large enough effect; inconclusive = small, poorly fitted or top-dose-only effect; inactive = no such curve, though single readings can be large or run the other way; tested in A549 cells; note: nearly all actives have a fitted effect of over 35% in size; inactives centre near -10
Active calls of the source: *; i = inactive; ? = inconclusive; / = not tested or not shown; [ ] = remark or other dose. % is set by controls: 0 for no effect and ±100 for the full control effect; potency is the fitted concentration of half-maximal effect. This is a random part of the collection (roughly 0.87% active in at least one column).

Structure,Vaccinia Venus,Vaccinia mCherry
O=C1N(c2ccccc2)C2CS(=O)(=O)CC2N1c1ccc(Br)cc1 (centres undefined),-16%,/
Cn1c(NC(=O)COc2ccccc2)cc(=O)n(C)c1=O,-3%,-15%
C=CCN1C(=O)C(O)(CC(=O)c2ccc(OC)cc2OC)c2cc(Br)ccc21 (centres undefined),-10%,-6%
COC(=O)c1ccc(SCC(=O)NC2CCCCC2)c([N+](=O)[O-])c1,-11%,-14%
CC(=O)c1cc2c(cc1NC(=O)CSc1nc3ccccc3o1)OCO2,-4%,/
CCCN(CCC)c1c([N+](=O)[O-])cc(C(F)(F)F)cc1[N+](=O)[O-],0%,i
Cc1ccc(S(=O)(=O)n2c(=O)oc3ccccc32)cc1,-16%,-10%
CCCC1(c2ccccc2)NC(=O)N(CC(=O)NCc2ccc(C)cc2)C1=O (centres undefined),-11%,-16%
CC(=O)OCC(=O)[C@@]1(O)[C@H](C)C[C@H]2[C@@H]3CCC4=CC(=O)C=C[C@]4(C)[C@@]3(F)[C@@H](O)C[C@@]21C,-18%,i
CN(C)c1ccc(NC(=O)CN2C(=O)c3ccccc3Sc3ccc(C(=O)N4CCCC4)cc32)cc1,-15%,-5%
COc1ccc(NC(=O)C2CCCN(S(=O)(=O)c3ccc(Cl)cc3)C2)cc1 (centres undefined),-7%,-5%
Cc1cc(CNC(=O)COc2ccc([N+](=O)[O-])cc2)c2ccccc2n1,-12%,-22%
CCOC(=O)C1=C(C)N(C[C@@H]2CC[C@@H](Cc3ccc(-c4ccccc4)cc3)O2)C(=O)NC1c1ccc([N+](=O)[O-])cc1 (some centres undefined),?,?
Cc1ccc(OC(=O)COc2ccccc2C)c(-n2nc3ccccc3n2)c1,-11%,i
CCCC1(CCC)NC(=O)N(CC(=O)c2cc(C)n(-c3ccc4c(c3)OCO4)c2C)C1=O,-8%,-12%
CCN1CCN(C(=O)c2ccccc2Nc2ccc(SC(F)F)cc2)CC1,-12%,-9%
CSc1ccc(CN(C)C(=O)C23CC4CC(CC(Cl)(C4)C2)C3)cc1,0%,-15%
CCC(C)n1c(=N)c(S(=O)(=O)c2ccccc2)cc2c(=O)n3ccccc3nc21 (centres undefined),1%,-9%
O=C(Cn1ncn2cccc2c1=O)NCc1cccc(Br)c1,-5%,-3%
COc1cc(CNCCN2CCOCC2)ccc1OCC(=O)NC(C)(C)C,-11%,-14%
C=CC(C)(C)O[C@@H]1O[C@H](CO)[C@@H](O)[C@H](O)[C@H]1O,-14%,i
Cc1ccc(C(=O)NCC(=O)OCCCn2c(=O)[nH]c3ccccc32)cc1,-16%,i
O=C(COC(=O)Cc1ccc(F)cc1)NC1CCCCCC1,-12%,-12%
O=C(CSc1nnc(COc2ccc(Cl)cc2)o1)N(c1ccccc1)C1CCS(=O)(=O)C1 (centres undefined),?,-20%
CSCCC(=O)NC1CCCN(CCc2ccccc2)C1 (centres undefined),-6%,-12%
Cc1ccccc1-c1nc(CN2CCC(C(=O)NC3CCN(Cc4ccccc4)CC3)CC2)c(C)o1,-14%,i
CC[C@@H](C)[C@@H]1CN([C@@H](CN2CCC[C@H]2CN2C(N)=NC[C@H]2C(C)C)C(C)C)C(=N)N1CCc1ccc(Cl)c(Cl)c1,-15%,-6%
O=C(O)C1CC(=O)N(Cc2cccnc2)C1 (centres undefined),-13%,-6%
CCCCn1nnnc1C(c1ccnc2ccccc12)N1CCN(C/C=C/c2ccccc2)CC1 (centres undefined),-16%,15%
Cc1ccc(N2C(=O)C3CCCN3C2=S)cc1C (centres undefined),-10%,-30%
CC(=O)c1cccc(NC(=S)NCCC2=CCCCC2)c1,-24%,-17%[1.46 µM]
CCOC(=O)C1=NNC2(c3ccc(Cl)cc3)C(=O)N(c3ccc(C)cc3)C(=O)C12 (centres undefined),-9%,i
COc1ccccc1N1CCN(C2CCCN(S(=O)(=O)c3ccccc3)C2)CC1 (centres undefined),-20%,-4%
Cc1cccc(S(=O)(=O)C(C#N)c2nc3ccccc3nc2N2CCCC2)c1 (centres undefined),-4%,/
COc1ccc(-c2ccc(C(=O)N(C)Cc3csc(C)n3)c(N3CCC(N4CCc5ccccc5C4)CC3)n2)cc1,10%,-9%
Cc1ccc(C2SCCN2C(=O)c2ccc([N+](=O)[O-])cc2)cc1 (centres undefined),-20%,-5%
COc1ccc(C(=O)Nc2ccccc2C(=O)NC(C(=O)NCc2ccco2)C(C)C)cc1 (centres undefined),-8%,/
O=C(c1ccc2c(c1)N(Cc1c(F)cccc1Cl)C(=O)c1ccccc1S2)N1CCOCC1,-5%,-7%
COc1ccc(CNC(=O)c2cccnc2Sc2ccc(C)c(C)c2)cc1,-16%,-7%
CCOc1ccc(-n2cnc3c(=O)[nH]c(N)nc32)cc1,-10%,i
O=C(NC1CCCCCC1)C1c2ccccc2C(=O)N1Cc1cccnc1 (centres undefined),-3%,-1%
C=CC[C@@H](CC(=O)N[C@H](CO)Cc1ccccc1)C(=O)N[C@@H](C)COC(=O)[C@@H](CC=C)Cc1ccc(F)cc1,-21%,?
O=C(CC1Oc2ccccc2NC1=O)NCCc1ccccc1 (centres undefined),-2%,12%
CC(=O)NC12CC3CC(C1)CC(C(=O)NCc1ccc(C)cc1)(C3)C2,-11%,-15%
Cc1cccc(CNc2cc(-c3ccc(C(=O)N(C)C)cc3)ncn2)c1,-21%,i
Cc1cc(C)cc(-n2c(C)cc(C(=S)N3CCOCC3)c2C)c1,-16%,-3%
O=C(NC(=S)NCc1ccccc1)c1ccccc1Br,1%,-10%
COC(C(=O)NC1CCCCCCC1)c1ccccc1 (centres undefined),-5%,i
CSC(=NC#N)N1CCN(c2ccccn2)CC1,-9%,-6%
CCCCNC(=O)N1CCOCCOCCN(C(=O)NCCCC)CCOCC1,-18%,/

Arranged by SMILES length (smallest number first): part of the list above
Structure,Vaccinia Venus,Vaccinia mCherry
CSC(=NC#N)N1CCN(c2ccccn2)CC1,-9%,-6%
COC(C(=O)NC1CCCCCCC1)c1ccccc1 (centres undefined),-5%,i
O=C(CC1Oc2ccccc2NC1=O)NCCc1ccccc1 (centres undefined),-2%,12%
O=C(NC1CCCCCC1)C1c2ccccc2C(=O)N1Cc1cccnc1 (centres undefined),-3%,-1%
Cc1cccc(CNc2cc(-c3ccc(C(=O)N(C)C)cc3)ncn2)c1,-21%,i
CC(=O)NC12CC3CC(C1)CC(C(=O)NCc1ccc(C)cc1)(C3)C2,-11%,-15%
C=CC[C@@H](CC(=O)N[C@H](CO)Cc1ccccc1)C(=O)N[C@@H](C)COC(=O)[C@@H](CC=C)Cc1ccc(F)cc1,-21%,?

Next part
Structure,Vaccinia Venus,Vaccinia mCherry
CC(OC(=O)Cc1n[nH]c(=O)c2ccccc12)C(=O)Nc1cc(Cl)cc(Cl)c1 (centres undefined),3%,-11%
COc1cc(C2C(C#N)=C(N)Oc3cc(C)n(CC4CCCO4)c(=O)c32)cc2c1OCO2 (centres undefined),-4%,-21%
COc1cc(C)ccc1S(=O)(=O)NC(=O)C1(C)CCN1C(=O)Cc1ccc(C(C)(C)C)cc1 (centres undefined),6%,-11%
COc1ccc(-c2nnc(SCC(=O)Nc3sc4c(c3C#N)CCC4)n2CC2CCCO2)cc1 (centres undefined),-28%,/
O=[N+]([O-])c1ccc(CN2CCOCCOCCN(Cc3ccc([N+](=O)[O-])cc3)CCOCC2)cc1,-17%,-15%
O=C(Cc1ccc(S(=O)(=O)N2CCOCC2)s1)NNC(=O)c1ccccc1Cl,-23%,i
CC(=O)C1=C(O)C(=CC=Cc2ccccc2)OC1=O,0%,i
Cc1cc(C)cc(OC(=O)C23CCC(C)(C(=O)O2)C3(C)C)c1 (centres undefined),-12%,-27%
O=C(NCCO)C(=O)NCC1OCCCN1S(=O)(=O)c1cc(F)ccc1F (centres undefined),-17%,-3%
CCS(=O)(=O)c1ncc(N(Cc2ccccc2)Cc2ccco2)c(C(=O)Nc2ccccc2C)n1,-13%,-18%
Nc1nc2nonc2nc1N,-8%,i
O=C(Nc1ccccc1N1CCCCC1)c1ccc(-c2ccc(Cl)cc2)o1,-17%,?
CCN(CC)C(=O)CSc1nc2ccccc2c(=O)n1CCC(=O)NCCc1ccc(OC)c(OC)c1,0%,-17%
CC(=O)Nc1cccc(NC(=O)CSc2ncc(-c3ccc(Cl)cc3)n2Cc2ccco2)c1,?,?
O=C(NC(Cc1ccccc1)C(=O)O)/C(=C\c1ccc(F)cc1)NC(=O)c1ccco1 (centres undefined),0%,-4%
Cc1cccc(NC(=O)CNC(=O)c2cccs2)n1,-10%,i
CCN(CC(=O)Nc1ccc(NC(C)=O)cc1)C(=O)/C=C/c1ccc(S(=O)(=O)N2CCCCCC2)cc1,-11%,-4%
COCCNC(=O)C1CCN(S(=O)(=O)c2ccc3c(c2)CCCN3C(C)=O)CC1,-4%,-1%
COc1ccc(/C=C2\SC(=O)N(CCC(=O)Nc3ccccc3)C2=O)cc1OC,-2%,-14%
CCN(Cc1ccccc1)c1c(C(=O)O)cnc2c1cnn2C,-10%,0%
Nc1nnc(-c2ccccc2Cl)s1,-1%,/
Cn1nnnc1SCCCNCc1cccc(OCc2ccc(F)cc2)c1,-12%,-9%
COc1ccc(OCCC(=O)OCC(=O)NC(=O)NC(C)(C)C)cc1,10%,3%
O=C(CSc1ncnc2scc(-c3ccc(Cl)cc3)c12)NCc1ccc2c(c1)OCO2,-26%,/
COc1cccc(-c2c(-c3cc(OC)cc(OC)c3)n(C)c3ccc(-c4cnc(N5CCOCC5)nc4)cc23)c1,?,-9%
C=C1C(=O)O[C@H]2[C@H]1[C@H](OC(=O)/C(C)=C\C)C[C@]1(CO1)[C@@H]1[C@H](OC(C)=O)C=C(C)[C@]21O,1%,i
COc1ccc2c(c1)CCC1(C)CC(=O)C=C21 (centres undefined),-21%,i
CN1CCN(/C=N/c2c(C#N)cnn2C)CC1,-4%,-13%
CNc1cccc(-c2ccccc2CO)n1,4%,i
CCOC(=O)N1CCN(C(=O)c2cc3c(=O)[nH]c4ccccc4c3s2)CC1,-10%,-18%
CC(C)N(Cc1ccccc1)C(=S)NCc1ccccc1,0%,-8%
O=C(CSc1ncccn1)N/N=C/c1ccccc1[N+](=O)[O-],-3%,0%
COc1ccccc1-c1cn(S(=O)(=O)c2ccc(C)cc2)nc1N,-26%,/
CCCn1nc(C(=O)OCC(=O)Nc2ccc(C(N)=O)cc2)c2ccccc2c1=O,0%,-10%
CCC(=O)Nc1nonc1-c1nc2ccccc2n1Cc1ccccc1,-27%,i
CCCS(=O)(=O)NC(=O)C1(C)CCN(C(=O)c2c(-c3ccccc3)noc2C)C1 (centres undefined),-6%,i
CCc1ccc(NC(=O)C(C)n2nnc3sc(-c4ccccc4)cc3c2=O)cc1 (centres undefined),-2%,-7%
CCOC(=O)N1CCC(N2C(=O)c3ccccc3C2Nc2ccccc2)CC1 (centres undefined),6%,7%
CN(Cc1cccnc1)C(=O)Cc1ccc(NS(=O)(=O)c2cccc(C(F)(F)F)c2)cc1,-3%,-10%
Cc1cccc(N2CCN(C(c3ccncc3)c3nnnn3C(C)(C)C)CC2)c1C (centres undefined),19%,14%
C(=NN=C1c2ccccc2-c2ccccc21)c1c[nH]c2ccccc12,?,-16%
COc1ccccc1Nc1cc(C)nc2c(C)cccc12,-16%,?
O=C(CCc1nc2ccccc2c(=O)[nH]1)OCc1cccc(C(F)(F)F)c1,-18%,-19%
Cc1nc(NC(=O)COC(=O)CNC(=O)c2ccco2)c(Cl)cc1Cl,-8%,-12%
COc1ccc(NC(=O)C2CC2)cc1OC1CCCC1,0%,-3%
Cc1ccc(S(=O)(=O)N2CCOC2CNC(=O)C(=O)NCc2ccco2)cc1 (centres undefined),-7%,-3%
O=C(c1cccs1)N1CCN(C/C=C/c2ccccc2)CC1,-10%,/
CCN1C(=O)C(=O)c2cc(C)ccc21,6%,-3%
CN(C)Cc1cccc(-c2ccccc2)c1O,-9%,?
Cc1nc2sc(C(=O)OC(C)C)c(N)c2c(C)c1C,-14%,i

Following part:
Structure,Vaccinia Venus,Vaccinia mCherry
COc1ccc(NC(=S)NC2CCS(=O)(=O)C2)cc1 (centres undefined),3%,-13%
Cc1nc2c(-c3ccc(F)cc3)c(C)nn2c(C)c1CCC(=O)NCc1ccc(F)cc1,-2%,-3%
O=C(N/N=C/c1cc(O)ccc1[N+](=O)[O-])c1ccc2c(c1)OCCO2,-7%,-1%
CCOC(=O)c1c(CN2CCCCC2)n(C)c2cc(Br)c(O)c(CN(C)C)c12,-15%,-25%
O=C(O)CC(CNS(=O)(=O)c1cccc2nsnc12)c1ccccc1 (centres undefined),-5%,i
CCCCOC(=O)c1ccc(NC(=O)Cn2nnc3sc4c(c3c2=O)CCCC4)cc1,-5%,-15%
